HCMV UL50-53 inh: inhibitors of HCMV UL50-UL53 interaction, biochemical, HTRF; normalized percent inhibition; AID 1918969, 2023; 190,000 compounds, 0.15% hits; inhibition, % (concentration not given with the values); HCMV UL50-UL53 nuclear egress complex (human cytomegalovirus);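 active = both replicates at 50% or more, plus weaker picks with an unusually low signal ratio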;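 note: stock transfer was 100 nL into about 20 µL; 0% = negative control wells and 100% = wells with untagged competitor protein; inactives centre near -12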
GIV-Gai inh: inhibitors of GIV peptide binding to Galpha-i3, primary screen, biochemical, fluorescence polarization, FITC-GIV GBA peptide, rat Galphai3 | Guanine nucleotide-binding protein G(i) subunit alpha-3 (Rattus norvegicus), P08753 | 90 min; active compounds read low; scaled: aluminum fluoride 0%, vehicle 100% | percent of control (FP), % (no concentration beside the values) | 210,000 compounds, 0.42% hits;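 active = replicate mean at 85% of control or lower, very high polarization wells dropped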;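 note: wells of about 15 µL received 100 nL stock; the first replicate is given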
Target sequence (P08753 whole entry, looked up): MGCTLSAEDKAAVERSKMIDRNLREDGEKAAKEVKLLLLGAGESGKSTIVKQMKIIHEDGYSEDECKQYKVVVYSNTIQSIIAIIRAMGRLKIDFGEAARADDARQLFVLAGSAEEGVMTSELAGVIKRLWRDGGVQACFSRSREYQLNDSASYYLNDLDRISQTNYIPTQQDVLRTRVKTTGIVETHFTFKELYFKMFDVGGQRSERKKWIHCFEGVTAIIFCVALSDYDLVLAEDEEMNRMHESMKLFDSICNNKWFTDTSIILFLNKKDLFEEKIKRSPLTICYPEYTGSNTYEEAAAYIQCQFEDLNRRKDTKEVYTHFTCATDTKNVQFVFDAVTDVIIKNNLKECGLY
Sa growth inh: S. aureus growth inhibition at 42 and 30 °C, primary screen, LtaS inhibitor project, RN4220, two temperatures; 170,000 compounds, 0.53% hits; AID 720641, 2013; relative growth, % (no concentration beside the values); OD600, 20 h, 42 °C; active compounds read low;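 active = growth at 42 °C up to 50% and 20 or more points under that at 30 °C, or under 10% at both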;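 note: 300 nL library stock went into each well; scaled to the means of positive and negative controls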
Sa growth inh second temp: second read-out of Sa growth inh, no call of its own (marks repeat the call); relative growth, %; measured here: growth at 30 °C;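 optical density after 20 h as mean of two plates; 100% = untreated growth and lower means inhibition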
* = called active by the depositor; / = not tested or not shown; & = joins results of further samples.

cpd	SMILES	HCMV UL50-53 inh	GIV-Gai inh
1	O=C(Nc1ncn[nH]1)c1ccc(Cl)cc1Cl	/	107
2	COCCNc1ncnc2scc(-c3ccc(C)cc3)c12	-6	113
3	N#C/C(C(N)=O)=C1/C(=O)Nc2ccc(Br)cc21	-18	/
4	COC(=O)c1ccc2c(=O)[nH]c(COC(=O)c3ccc4c(c3)OCCO4)nc2c1	-25	/
5	N#CCSc1nc2[nH]ncc2c(=O)n1-c1ccccc1Br	2	103
6	Cc1ccc(-n2nc(N3CCCN(C(=O)c4cccc(N(C)C)c4)CC3)ccc2=O)cc1C	-48	96
7	CC1=CC=CC2=NC(=O)CC(C)(C(=O)O)N12 (stereo not drawn)	/	101
8	CCCn1cnc2c(oc3ccccc32)c1=O	/	101
9	CC(C)N(CC(N)=O)c1ncnc2sc3c(c12)CCC3	-10	/
10	CCc1ccc(C2C(C(=O)Nc3ccccc3C)=C(C)NC3=C2C(=O)CCC3)cc1 (stereo not drawn)	-2	/
11	COC(=O)c1cc(S(=O)(=O)N2CCc3ccccc3C2)c[nH]1	-5	99
12	CC1CCCCN1C(=O)c1oc(=O)c2ccccc2c1-c1ccccc1 (stereo not drawn)	/	99
13	Cc1cc2nc(Cc3cc4c(cc3Br)OCO4)c(=O)[nH]c2cc1C	-13	100
14	COc1ccc(N2CC(c3n[nH]c(=S)o3)CC2=O)cc1Cl (stereo not drawn)	-3	98
15	CC(C)CN(CC(C)C)C(=O)c1cc(-c2ccccc2)n[nH]1	/	104

cpd	Sa growth inh	Sa growth inh second temp
1	101	79
2	/	/
3	9.1*	1.2*
4	84	83
5	86	77
6	/	/
7	105	92
8	117	88
9	105	96
10	106	89
11	97	85
12	101	93
13	/	/
14	/	/
15	101	94

14 compounds already listed, arranged by formula weight, lowest first:
cpd	SMILES	HCMV UL50-53 inh	GIV-Gai inh
7	CC1=CC=CC2=NC(=O)CC(C)(C(=O)O)N12 (stereo not drawn)	/	101
8	CCCn1cnc2c(oc3ccccc32)c1=O	/	101
1	O=C(Nc1ncn[nH]1)c1ccc(Cl)cc1Cl	/	107
9	CC(C)N(CC(N)=O)c1ncnc2sc3c(c12)CCC3	-10	/
3	N#C/C(C(N)=O)=C1/C(=O)Nc2ccc(Br)cc21	-18	/
2	COCCNc1ncnc2scc(-c3ccc(C)cc3)c12	-6	113
11	COC(=O)c1cc(S(=O)(=O)N2CCc3ccccc3C2)c[nH]1	-5	99
14	COc1ccc(N2CC(c3n[nH]c(=S)o3)CC2=O)cc1Cl (stereo not drawn)	-3	98
12	CC1CCCCN1C(=O)c1oc(=O)c2ccccc2c1-c1ccccc1 (stereo not drawn)	/	99
5	N#CCSc1nc2[nH]ncc2c(=O)n1-c1ccccc1Br	2	103
13	Cc1cc2nc(Cc3cc4c(cc3Br)OCO4)c(=O)[nH]c2cc1C	-13	100
4	COC(=O)c1ccc2c(=O)[nH]c(COC(=O)c3ccc4c(c3)OCCO4)nc2c1	-25	/
10	CCc1ccc(C2C(C(=O)Nc3ccccc3C)=C(C)NC3=C2C(=O)CCC3)cc1 (stereo not drawn)	-2	/
6	Cc1ccc(-n2nc(N3CCCN(C(=O)c4cccc(N(C)C)c4)CC3)ccc2=O)cc1C	-48	96

cpd	Sa growth inh	Sa growth inh second temp
7	105	92
8	117	88
1	101	79
9	105	96
3	9.1*	1.2*
2	/	/
11	97	85
14	/	/
12	101	93
5	86	77
13	/	/
4	84	83
10	106	89
6	/	/

(cont.)
cpd	SMILES	HCMV UL50-53 inh	GIV-Gai inh
16	Cc1cccc(NC(=O)c2cc(-c3ccc4c(c3)OCCO4)on2)c1	17	103
17	COc1ccc(-c2nn3c(N4CCN(c5ccccn5)CC4)cc(C)nc3c2C)cc1OC	-37	104
18	COc1ccc(Cc2nc(CN3C(=O)COc4ccccc43)no2)cc1Cl	-25	108
19	CCC(C)Nc1cc(C(C)(C)C)nc2c(-c3ccc(F)cc3)c(C)nn12 (stereo not drawn)	-14	99
20	COc1ccc(N2CCN(C(CNC(=O)C(=O)NCc3ccc(C)cc3)c3cccnc3)CC2)cc1 (stereo not drawn)	-15	106
21	COc1ccccc1C1=NN(C(=O)CCC(=O)O)C(c2ccccc2Cl)C1 (stereo not drawn)	-20	113
22	N#Cc1c(NC(=O)/C=C\C(=O)O)sc2c1CCCC2	27	107
23	CCc1cc2c(=O)c(-c3ccc4c(c3)OCO4)c(C)oc2cc1OC1OC(CO)C(O)C(O)C1O (stereo not drawn)	-10	111
24	CC(C)NC(=O)NC(C)C	-7	/
25	O=c1[nH]c2ccccc2cc1CO	-3	100
26	O=c1[nH]cnc2c1nnn2-c1cccc(Cl)c1	-27	103
27	O=C(/C=C/c1ccco1)NCc1ccccc1	-76	102
28	COC(=O)C(CC(=O)c1ccc(Br)cc1)n1nc(C)cc1C (stereo not drawn)	-5	104
29	CCn1c(=O)cc(SCC(=O)NCCc2cc(OC)ccc2OC)c2ccccc21	-22	105
30	CCOC(=O)c1ccc(N2C(=O)CC(N3CCN(Cc4ccccc4Cl)CC3)C2=O)cc1 (stereo not drawn)	-24	100

cpd	Sa growth inh	Sa growth inh second temp
16	105	53
17	/	/
18	/	/
19	/	/
20	104	90
21	/	/
22	95	105
23	/	/
24	88	91
25	92	89
26	/	/
27	87	79
28	96	101
29	93	84
30	96	76

Next structures.
cpd	SMILES	HCMV UL50-53 inh	GIV-Gai inh
31	CCn1c(=O)c(N2CCN(C(=O)c3cccc(C)c3)CC2)nc2ccccc21	-14	105
32	O=C(O)c1nccnc1-c1nc2ccccc2c(=O)[nH]1	-17	100
33	Clc1nc(NCCN2CCOCC2)nc(Nc2ccc3c(c2)OCO3)n1	-29	106
34	CCOC(=O)c1cc(-c2ccc(F)cc2)n(CC(=O)Nc2nnc(SCC)s2)c1C	2	98
35	COc1ccc2nc(NC3=NC(c4ccccc4)CC(=O)N3)nc(C)c2c1 (stereo not drawn)	-10&-18	98&109
36	Cc1c(-c2nnc(C(=O)N3CCCC3)o2)oc2c(C)cccc12	-7	106
37	COC(OC)c1ccc2c(N)c(C(=O)c3ccc(C)cc3)sc2n1	-1	100
38	CCOC(=O)/C(C#N)=C(\C)C1CCCCC1	-11	/
39	Cc1ccc(N(C)S(=O)(=O)c2c(-c3ccccc3)csc2C(=O)n2nc(C)cc2C)cc1	-29	102
40	COc1ccc(-n2ccn3c(CCC(=O)NCC4CCCO4)nnc3c2=O)cc1 (stereo not drawn)	-29	99
41	CCOc1ccccc1CNS(=O)(=O)c1ccc2[nH]c(=O)ccc2c1	/	108
42	O=c1/c(=C/c2ccc(-c3ccc(F)cc3)o2)sc2nc3cc(Br)cnc3n12	-29	108
43	Cc1ccccc1-c1nc(CS(=O)(=O)CC(=O)N2CCN(c3ccccc3)CC2)c(C)o1	-4	104
44	CCN(CC)S(=O)(=O)c1ccc2c(c1)nc1n2CCCCC1	-17	/
45	CCOC(=O)c1c(C)oc(NC(=O)COc2ccc(Cl)cc2Cl)c1C#N	-9	/

cpd	Sa growth inh	Sa growth inh second temp
31	/	/
32	99	99
33	90	80
34	100	91
35	/	/
36	/	/
37	103	82
38	95	89
39	/	/
40	/	/
41	93	79
42	95	71
43	108	90
44	90	89
45	101	89

(listing goes on)
cpd	SMILES	HCMV UL50-53 inh	GIV-Gai inh
46	N#CC(C(=O)C1COc2ccccc2O1)c1nc2ccccc2s1 (stereo not drawn)	22	/
47	Cc1cccc(NC(=O)CSc2nc3c(sc4ccccc43)c(=O)n2CCCC(=O)NC2CCCC2)c1	-14	101
48	CCOc1ccc(CNC(=O)CCCn2c(=O)c3cccn3c3ccccc32)cc1	-20	99
49	CC(C)(C)C(=O)/C=c1\[nH]c(=O)/c(=C\c2cn(CCC#N)nc2-c2ccccc2)s1	2	/
50	CN(C(=O)Cn1cnc2onc(-c3ccc(F)cc3)c2c1=O)c1ccc(Br)cc1	-22	105
51	Cc1ccc(N(CC(=O)Nc2ccc(C)c(F)c2)S(=O)(=O)c2c(C)n[nH]c2C)cc1	-25	102
52	Cc1c(Cl)cccc1NC(=O)C1COc2ccccc2O1 (stereo not drawn)	-6	105
53	O=C(Cc1csc(-c2ccccc2)n1)Nc1cccnc1	-41	/
54	O=c1[nH]c(=O)n([C@H]2C[C@H](O)[C@@H](CO)O2)cc1Br	-6&-16	100&99
55	CCOC(=O)c1c(NC(=S)Nc2cc(C)nn2-c2ccccc2)sc(C)c1C	-11	108
56	CC(OC(=O)c1ccccc1NS(C)(=O)=O)C(=O)Nc1ncc(Cl)cc1Cl (stereo not drawn)	7	/
57	Cc1nnc(-c2ccc(C(F)(F)F)cn2)nc1C	-10	102
58	CC(C#N)Sc1nn(-c2ccc(Cl)c(Cl)c2)c(=S)s1 (stereo not drawn)	-8	/
59	Cc1ccc(CCNC(=O)c2ccc3c(c2)N(Cc2cc(C)ccc2C)C(=O)c2ccccc2S3=O)cc1 (stereo not drawn)	-16	97
60	C=CCc1cccc2cc(C(=O)N(C)C)c(=O)oc12	-4&-12	95

cpd	Sa growth inh	Sa growth inh second temp
46	152	74
47	98	86
48	116	67
49	81	101
50	96	88
51	102	90
52	/	/
53	88	92
54	77	92
55	102	95
56	99	92
57	118	102
58	100	100
59	98	89
60	82	84

More structures
cpd	SMILES	HCMV UL50-53 inh	GIV-Gai inh
61	O=C(Nc1ccc(F)cc1F)C1Nc2cc(F)ccc2S(=O)(=O)N1 (stereo not drawn)	11	106
62	O=C(CSc1ncnc2nc(N3CCCC3)sc12)Nc1ccc2c(c1)CCC2	-14	99
63	C=CCN(c1nc2nc(C)c(Cl)c(C)n2n1)S(=O)(=O)c1ccccc1	-2	102
64	Cc1cc(Cl)c(Cl)cc1S(=O)(=O)n1cccn1	-37	98
65	CN(C)C(=O)CSc1nc2ccc(Cl)cc2[nH]1	-4	/
66	O=C(O)c1c(-n2cccc2)sc2c1CCCC2	-13	/
67	Cc1nc(SCCOc2ccccc2)sc1C(=O)Nc1ccccc1	/	105
68	CC(C)CC(=O)N1CCN(C(=O)C2CC2)CC1	17	106
69	CCOC(=O)c1c(C)oc(C)c1S(N)(=O)=O	-1	98
70	Cn1c(=O)c2ccccc2n(CC(N)=O)c1=O	1	105
71	CC(=O)Nc1ccc(S(=O)(=O)NCC(=O)OCc2cc(=O)n3cc(Br)ccc3n2)cc1	-65	/
72	Cc1cccc(N(C)S(=O)(=O)c2cc(-c3cnc(C4CC4)o3)ccc2C)c1	/	106
73	CNC(=O)COC(=O)c1nc(Cl)c(Cl)c(Cl)c1Cl	-28	/
74	COC(=O)Nc1ccccc1NC(=O)OC	-10	102
75	O=C(c1ccc(C(F)(F)F)cc1)N1CCN(c2cc(C(F)(F)F)ccn2)CC1	-6	101

cpd	Sa growth inh	Sa growth inh second temp
61	/	/
62	/	/
63	/	/
64	96	86
65	113	104
66	151	95
67	97	84
68	101	75
69	101	76
70	80	107
71	101	101
72	117	101
73	88	96
74	102	96
75	100	101

Fetched by compound from the list above, 2 records:
cpd	SMILES	HCMV UL50-53 inh	GIV-Gai inh
27	O=C(/C=C/c1ccco1)NCc1ccccc1	-76	102
60	C=CCc1cccc2cc(C(=O)N(C)C)c(=O)oc12	-4&-12	95

cpd	Sa growth inh	Sa growth inh second temp
27	87	79
60	82	84

Next part
cpd	SMILES	HCMV UL50-53 inh	GIV-Gai inh
76	CC(C)(C)c1ccc(-c2nnc(CS(=O)(=O)c3ccc(Cl)cc3)o2)cc1	-5	103
77	CCN(C(=O)CN1C(=O)C2CCCC2=Nc2ccccc21)c1ccccc1 (stereo not drawn)	-25	105
78	O=C(CN1CCC(NC(=O)NC2CCCCC2)CC1)NCc1ccccc1	7	103
79	COc1ccccc1CNc1ncnc2c1c(-c1ccccc1)cn2-c1cccc(C)c1	/	103
80	CC1CCCCN1S(=O)(=O)c1cccc2cccnc12 (stereo not drawn)	-8	101

cpd	Sa growth inh	Sa growth inh second temp
76	103	57
77	/	/
78	118	96
79	89	98
80	102	86

Rows were taken by chance; overall some 0.82% were active at least once.
